Bioassay records as filed in PubChem BioAssay.
Mtb hypoxia inh: PubChem AID 1159583. M. tuberculosis hypoxia-regulated fluorescent reporter, fluorescence. fluorescence inhibition, % (no concentration beside the values). actives 0.1% (n = 300,000);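 active = 35 to 45% if threefold the growth effect, above 45% if 1.5-fold the growth effect; inactive = the rest, general growth blockers included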;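 also: wells of about 50 µL received 100 nL stock; 0% = vehicle wells and 100% = reference inhibitor wells; whole bacteria with a GFP reporter of the hypoxia response; strong numbers were not always called active; many hits fall short of the cut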
PrP 5UTR inh: inhibition of PrP 5' UTR reporter expression. cell-based PrP 5' UTR mRNA reporter, plate reader. inhibition, % (concentration not given with the values). actives 0.35% (n = 340,000);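 active = every replicate at 50% or more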;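 also: 0 = median of the neutral control wells; tested in H4 reporter cells; numbers are from one replicate; inactives centre near -14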
BJeLR viability: MLPCN primary cell-based screen for lethality selective to Ras in HRASV12 cells. BJeLR (HRASV12) viability, CellTiter-Glo ATP luminescence, 48 h; reference of the scale not given here. inhibition, % (no concentration beside the values). actives 0.17% (n = 300,000). AID 1554, 2009;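 active = replicate mean above 50%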;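 also: 50 nL library stock added to about 25 µL; numbers are from one replicate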
Bead autofluor: flagged as autofluorescent in microsphere protease counterscreen. AID 624483. fluorescence intensity (concentration not given with the values). actives 3.1% (n = 360,000). compound autofluorescence counterscreen, microsphere flow cytometry; hits give high values;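 active = at least 3 SD above the mean of all compounds, about 16000 in these data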;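 also: 100 nL of 1 mM stock went into each well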
Sa RN4220 lethal: growth inhibition of S. aureus RN4220, primary screen, OD600; 16 h; inhibition, % (no concentration beside the values); actives 0.33% (n = 330,000); AID 1259311, 2017;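 active = z-score of -3 or lower and OD600 up to 0.18 on both plates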;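 also: plate controls were untreated cells for no effect and reference antibiotic for full effect; stock transfer was 100 nL into about 80 µL; one replicate is shown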
ugtP null kill: growth inhibition of ugtP-null S. aureus, primary screen, RN4220 ugtP deletion, OD600; 16 h; some inactives read as strong as hits; AID 1259309, 2017; actives 0.54% (n = 330,000); growth inhibition, % (no concentration beside the values);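 active = z-score under -3 and OD600 up to 0.15 on both plates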;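 also: plate controls were untreated wells for no effect and antibiotic for full effect; wells of about 80 µL received 100 nL stock; the first replicate is given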
Mtb hypoxia inh growth: second read-out of Mtb hypoxia inh, no call of its own (marks repeat the call); growth inhibition, %; measured here: M. tuberculosis growth (absorbance);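 0% = vehicle and 100% = reference antibiotic; read after six days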
An asterisk follows results filed as active; . = no result given. Rows were taken by chance. About 4% of those tested had a hit in this group.

SMILES | Mtb hypoxia inh | Mtb hypoxia inh growth | PrP 5UTR inh | BJeLR viability | Bead autofluor | Sa RN4220 lethal | ugtP null kill
CC(C)[C@H](NC(=O)c1ccco1)C(=O)OCC(=O)Nc1ccc(Cl)c(S(=O)(=O)N(C)C)c1 | -5 | -3 | -10 | 2 | 4172 | 0.6 | 3
O=C(c1ccc2c(c1)OCO2)N1CCN(c2ncccn2)CC1 | 8 | 4 | -4 | -2 | 2017 | 3.3 | 10
Cc1cccc(C)c1NC(=O)C(NC(=O)c1ccccn1)c1ccccc1[N+](=O)[O-] (stereo not drawn) | 6 | 5 | -38 | 0 | 2318 | 3.1 | 3
Cc1ccc(-c2csc(NC(=O)CN3CCC(C(N)=O)CC3)n2)cc1 | 2 | 3 | -24 | 5 | 4504 | 2.5 | 6
COCCNC(=S)Nc1ccc([N+](=O)[O-])cc1C | -2 | 16 | -5 | 2 | 4637 | 3.0 | 1
COc1ccccc1OCC(=O)OCC(=O)Nc1sccc1C(N)=O | . | . | -26 | -8 | 2487 | . | .
COC(=O)c1ccc(OC(=O)N2CCOCC2)cc1 | -2 | 2 | 2 | -6 | 3335 | 2.4 | 3
Cc1ccc(/C=c2/sc3nnc(-c4ccccc4Cl)n3c2=O)o1 | . | . | -24 | -3 | 16190* | . | .
CCc1ccc(OCC(=O)N2CCc3ccccc32)cc1 | 6 | 1 | -101 | -5 | 3679 | 4.3 | 7
Cc1cc(/C([O-])=C(/C(=S)Nc2ccc(F)cc2)[n+]2ccccc2)c(C)n1-c1ccc(F)cc1 | 1 | 8 | -10 | -2 | 7071 | -3.2 | 4
Cc1c(C(=O)Nc2cc(F)ccc2F)sc2nc3n(c(=O)c12)CCCCC3 | 4 | 2 | -47 | 0 | 5802 | 1.3 | 3
CN(C)c1ccnc2sc3c(=O)n(Cc4ccccc4)cnc3c12 | 5 | 0 | 22 | 4 | 15464 | 3.7 | 8
Cc1ccnc(NS(=O)(=O)Cc2ccccc2)c1 | 3 | 3 | -28 | 8 | 8620 | 1.2 | -2
Oc1cccc(C=Nn2c(C3CCCCC3)n[nH]c2=S)c1 | 4 | 6 | . | . | . | 3.6 | -9
Cc1nc(NC(=O)c2ccc(F)cc2)sc1C(=O)Nc1ccc2c(c1)CCC2 | -2 | -4 | -44 | -12 | 6262 | 0.0 | -13
N#C/C(=C\c1ccncc1)c1ccccn1 | 1 | -3 | -6 | 3 | 3105 | 8.4 | 7
CCOC(=O)c1cc2c(=O)n3ccccc3nc2n(Cc2ccco2)c1=NC(=O)c1cccnc1 | -12 | 0 | -12 | -19 | 4730 | 2.5 | -9
O=C(CN1CCSCC1)NN=Cc1ccc(F)cc1 | 1 | 1 | . | . | . | -0.3 | 1
CC1CCC2C(=O)NC(Cc3ccccc3)C(=O)N2C1c1ccccc1 (stereo not drawn) | 20 | 3 | . | . | . | 5.7 | 6
COc1cc(NCC(=O)Nc2cccc(S(=O)(=O)N3CCCCC3)c2)cc(OC)c1OC | -6 | 2 | 22 | . | 3729 | 1.3 | 4
Cc1nnc(NC(=O)c2oc3c(ccc4ccccc43)c2C)s1 | 1 | 3 | 1 | 8 | 3318 | 6.5 | 2
Cc1nc2ccc(NC(=O)N3CCC(c4ccccc4)C3)cc2nc1C (stereo not drawn) | 19 | 12 | -14 | -16 | 3227 | -14 | -1
CCS(=O)(=O)CCSP(=O)(OC)OC | 2 | 1 | -25 | . | 3004 | 3.8 | 4
Cc1ccc(C(C(=O)NCc2ccccc2)N(Cc2cccs2)C(=O)c2ccc3c(c2)OCCO3)cc1 (stereo not drawn) | 5 | 1 | 6 | 7 | 2106 | -1.7 | -9
COc1ccc(/C=C/C(=O)c2cc(Br)ccc2O)cc1OC | 6 | 9 | -16 | 10 | 4260 | 15 | 6
CCOC(=O)c1c(CN2CCN(c3ccccc3)CC2)oc2ccc(O)cc12 | 8 | 10 | -18 | -3 | 6019 | -2.3 | 33
COc1ccccc1NC(C)=O | 13 | 8 | -6 | 1 | 4364 | 2.0 | 1
Cc1ccc(NC(=O)ON=Cc2ccc(N(C)C)cc2)cc1 | 15 | 5 | . | . | . | -3.4 | 8
CC(=O)NC(=O)Nc1sc(=S)n(C)c1C | . | . | -16 | 8 | 4142 | 2.2 | 7
Cc1ccccc1-n1c(SCC(=O)N/N=C/c2sccc2C)nc2ccccc2c1=O | . | . | -4 | 4 | 8116 | . | .
CC(=O)c1ccccc1NC(=O)CSc1nnc2ccccn12 | . | . | . | 1 | . | 0.6 | 2
O=C(c1ccccc1Cc1ccccc1)N1CCN(S(=O)(=O)c2ccccc2)CC1 | -5 | 4 | -6 | 6 | 6312 | 13 | 1
CCOC(=O)C1CCN(S(=O)(=O)c2ccc(OC)c(Cl)c2Cl)CC1 | 13 | 13 | -29 | -4 | 4154 | 6.7 | -7
CCCNC(=O)Cn1nc(C(F)(F)F)cc1C | -5 | -6 | 58* | 3 | 3191 | 11 | 5
O=C(O)C(Sc1ccncn1)c1ccccc1 (stereo not drawn) | 3 | 2 | 2 | 1 | 4175 | 1.5 | 2
CCC1COCCS(=O)(=O)N1Cc1ccc(C)cc1 (stereo not drawn) | . | . | -6 | -6 | 4389 | . | .
FC(F)(F)Oc1ccc(NC2=NCCCS2)cc1 | -18 | -8 | -15 | -3 | 3684 | 2.7 | 3
COc1ccc(CN2CCN(C(=O)CC(C)C)CC2)c(OC)c1OC | 0 | 2 | -20 | 7 | 3253 | 7.3 | 2
Cc1cc(N2CC34C=CC(O3)C(C(=O)O)C4C2=O)no1 (stereo not drawn) | 8 | -8 | -16 | 13 | 4345 | -0.7 | 9
CN(C)/C=C/C(=O)c1ccccc1F | 16 | 6 | -40 | -7 | 4919 | 0.5 | 5
CC(C)NC(=S)NN=Cc1c[nH]c2ccccc12 | 15 | 13 | . | . | . | 1.0 | -8
COc1cccc(OC)c1C(=O)N1CCN(S(=O)(=O)c2ccccc2)CC1 | . | . | -28 | -1 | 5023 | 3.3 | 5
O=C(CN1CCN(S(=O)(=O)c2ccccc2)CC1)N1CCCCC1 | 9 | 9 | -25 | . | 7825 | -0.6 | 7
CCC1=C(OC(=O)N(CC)CC)N2C(=O)OC(=NCc3ccccc3)[C@]2(C)C2C1=CCC1C(=O)N(CC)C(=O)C12 (stereo partly drawn) | 1 | -8 | . | . | . | 4.1 | 0
Cc1ccc(/C=C/c2nnc(-c3cccs3)o2)cc1 | -3 | -3 | -119 | 10 | 7641 | 12 | -4
COC(=O)C1CCN(CC(=O)Nc2ccc3c(c2)OCCO3)CC1 | -1 | 3 | -1 | . | 2889 | 0.3 | -2
C[C@]12c3[nH]c4ccc(Cl)cc4c3CCN1C(=O)[C@@H](CC(=O)NCC13CC4CC(CC(C4)C1)C3)C[C@@H]2C(=O)N1CCCCC1 | -7 | 3 | -7 | . | 3826 | 0.1 | -15
COc1ccc(/C=N\NC(=O)c2cc(OCC(F)(F)F)ccc2OCC(F)(F)F)cc1 | . | . | -23 | 9 | 2807 | . | .
CSc1ccccc1C(=O)N(CC1CCCO1)c1c(N)n(Cc2ccccc2)c(=O)[nH]c1=O (stereo not drawn) | 6 | -3 | -18 | 2 | 4571 | 3.5 | 7
Cc1ccc(NC(=O)c2cc(-c3ccccc3)nn2-c2ccccc2)cc1 | 10 | 4 | -2 | -10 | 7571 | -6.8 | 71
S=c1[nH]nc(-c2cccc(Cl)c2)n1N=Cc1ccc(-c2ccccc2Br)o1 | 9 | 7 | . | . | . | 11 | 27
COc1cc(C(=O)OC2CSCC2NC(=O)c2ccccc2)cc(OC)c1OC (stereo not drawn) | 1 | -7 | -12 | -2 | 2660 | -4.3 | -4
COc1ccc2cc(C(=O)Nc3ccc(O)cc3)sc(=O)c2c1OC | . | . | -19 | -22 | 2515 | . | .
N#Cc1nc(-c2ccc(F)cc2)oc1N1CCCCC1 | -10 | -9 | -6 | -2 | 3647 | 5.3 | -5
COc1ccccc1CNC(=O)/C=C/c1ccc(S(=O)(=O)NCc2ccco2)cc1 | 6 | 10 | -36 | -3 | 7895 | 2.3 | 3
S=C(NCc1cccc(Cl)c1)NC1CCCCC1 | -1 | 6 | -8 | 6 | 2248 | 0.0 | -6
O=C(NCc1ccccn1)c1cccn1-c1ncc(C(F)(F)F)cc1Cl | 2 | 11 | -30 | 8 | 4417 | 2.2 | 2
O=C(NCc1ccncc1)c1ccc(NS(=O)(=O)c2ccccc2)cc1 | -5 | 3 | -18 | -5 | 5872 | 2.8 | 5
CCC(C)(C)C(=O)Nc1cc([N+](=O)[O-])ccc1Cl | 5 | 9 | -26 | 3 | 2499 | 6.4 | 1
COc1ccc(C(C)(C)C)cc1NC(=O)c1c(C)noc1C | 3 | 8 | -20 | 15 | 10032 | 1.7 | 5

Continuation:
SMILES | Mtb hypoxia inh | Mtb hypoxia inh growth | PrP 5UTR inh | BJeLR viability | Bead autofluor | Sa RN4220 lethal | ugtP null kill
Cc1ccc(O)c(NC(=O)c2cc(-c3ccccc3Cl)on2)c1 | 8 | 6 | -89 | 7 | 3575 | 7.4 | 4
O=C(CCCCCn1c(SCc2ccncc2)nc2ccccc2c1=O)NCc1ccco1 | -2 | 3 | -31 | -3 | 4976 | -1.7 | -14
O=C(CCCN1C(=O)c2ccccc2C1=O)Nc1sc2c(c1C(=O)NCc1ccco1)CCC2 | 8 | 5 | -5 | -1 | 16085 | 3.7 | 8
Cn1c2ccccc2c(=O)c2ccc(C#Cc3ccc(N)cc3)cc21 | 6 | 10 | -18 | -9 | 4428 | 4.5 | -11
COc1cccc(C2C3=C(N=c4sc(=Cc5cccc(O)c5)c(=O)n42)c2ccccc2CC3)c1OC (stereo not drawn) | -3 | 2 | . | . | . | 5.8 | -8
CCC(CC)=NNc1cccc([N+](=O)[O-])c1 | 4 | 8 | -14 | -13 | 2036 | 5.0 | -1
CC(C)CC(=O)NC(Nc1ccccc1F)C(Cl)(Cl)Cl (stereo not drawn) | -1 | 1 | -10 | -13 | 3128 | -4.2 | -3
CCOC(=O)c1ccc(NC(=O)COc2ccccc2CNC2CCCC2)cc1 | 4 | 3 | -13 | 7 | 4473 | -1.5 | 5
CC(C)(C)NS(=O)(=O)c1ccc(NC(=O)C2CCCCC2)cc1 | -5 | -1 | -2 | 2 | 3298 | 4.4 | -3
Cc1nn(-c2nc3ccccc3s2)c(C)c1Oc1ccccc1O | -5 | -1 | -71 | 15 | 12121 | 0.4 | 13
COc1ccccc1Nc1nnc(SCC(=O)NC2CCCC2)s1 | -7 | -3 | -13 | . | 6648 | 3.1 | 4
CC(C)N(C(=O)[C@H]1C[C@H](CC(=O)NCCC2=CCCCC2)C(=O)N2CCc3c([nH]c4cc(-c5ccco5)ccc34)[C@]12C)C(C)C | -8 | 9 | -12 | . | 3873 | -7.5 | -3
C=CCN(CC=C)CCOc1ccc(C)cc1[N+](=O)[O-] | 6 | 0 | -46 | -2 | 2464 | 3.7 | 3
O=C(CSc1ccc2nnc(CCNC(=O)c3ccccc3)n2n1)NCCc1ccccc1 | 17 | -1 | -10 | -3 | 6109 | 1.6 | 1
CCc1ccc(N2CC(C(=O)N/N=C/c3ccccc3)CC2=O)cc1 (stereo not drawn) | . | . | -25 | 0 | 6155 | . | .
C=CCn1c(Sc2ncc([N+](=O)[O-])s2)n[nH]c1=O | 11 | 14 | -11 | 6 | 3633 | 27 | 89*
O=C(NC1CCCC1)c1ccc(CN2CCOCC2)cc1 | 6 | 6 | 1 | -11 | 2287 | 5.5 | 8

Reprinted at random: five compounds from above.
SMILES | Mtb hypoxia inh | Mtb hypoxia inh growth | PrP 5UTR inh | BJeLR viability | Bead autofluor | Sa RN4220 lethal | ugtP null kill
CC(C)N(C(=O)[C@H]1C[C@H](CC(=O)NCCC2=CCCCC2)C(=O)N2CCc3c([nH]c4cc(-c5ccco5)ccc34)[C@]12C)C(C)C | -8 | 9 | -12 | . | 3873 | -7.5 | -3
C=CCN(CC=C)CCOc1ccc(C)cc1[N+](=O)[O-] | 6 | 0 | -46 | -2 | 2464 | 3.7 | 3
Cc1ccc(O)c(NC(=O)c2cc(-c3ccccc3Cl)on2)c1 | 8 | 6 | -89 | 7 | 3575 | 7.4 | 4
COc1cccc(C2C3=C(N=c4sc(=Cc5cccc(O)c5)c(=O)n42)c2ccccc2CC3)c1OC (stereo not drawn) | -3 | 2 | . | . | . | 5.8 | -8
CCC(CC)=NNc1cccc([N+](=O)[O-])c1 | 4 | 8 | -14 | -13 | 2036 | 5.0 | -1
